NPYLR7 ag: agonists of mosquito NPYLR7 receptor, primary screen, cell-based, Aedes aegypti, calcium fluorescence, mosquito biting behavior. HEK293T NPYLR7/Galpha15, GCaMP6s calcium fluorescence. actives 0.15% (n = 270,000). activation, % at 10 µM; in the data active means activation above about 40%;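 further: 0% = vehicle and 100% = reference agonist at the receptor; some compounds past the cut are filed as inactive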
NPYLR7 ag max-min: second read-out of NPYLR7 ag, no call of its own (marks repeat the call); activation, %; measured here: Max-Min RFU normalised activation; some inactives read as strong as hits;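 span of the calcium signal over five minutes; 0% = vehicle and 100% = native peptide agonist; compound fluorescence can raise it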
* marks the source's active call; other numbers are inactive results. These rows are one share of the data, so the mix of outcomes need not match the whole.

SMILES	NPYLR7 ag	NPYLR7 ag max-min
CSc1ccccc1OCc1cc(C(=O)N(C)CCc2c(C)n[nH]c2C)no1	0.9	-2.4
Cc1nn(C)c(C)c1NS(=O)(=O)c1c(C)n[nH]c1C	2.3	1.1
CCc1noc(CC)c1CN	16.3	11.4
COc1ccc(OCC(=O)Nc2sc3c(c2C(=O)NCC2CCCO2)CCCC3)cc1 (stereo not drawn)	-2.1	-2.2
COc1ccc(Nc2nc(-c3cccs3)nc3cc(Cl)ccc23)cc1	0.5	4.5
C/C=C\Cn1c(C(=O)N2CCCC(C(=O)OCC)C2)cc2ccsc21 (stereo not drawn)	11.0	8.2
C[C@@]1(O)CCN(C(=O)Cn2cccn2)C[C@@H]1Cc1ccccc1	0.4	-0.5
O=C(NCc1cc(-c2ccc(F)cc2F)on1)c1ccc(=O)oc1	-1.6	-2.7
CCC(O)(CC)c1ccc(CN(Cc2ccccc2)Cc2ccco2)o1	5.8	4.6
O=C(NCCc1ccccc1)C(C1CCCC1)N1CCN(C(=O)c2ccc(F)cc2)CC1 (stereo not drawn)	-3.2	1.3
O=C1CC(Nc2cnc3ccccc3n2)CN1Cc1ccccc1Cl (stereo not drawn)	8.2	3.8
O=C(NCCc1ccccc1)C1CCN(C2CCN(C(=O)c3ccccn3)CC2)CC1	-5.4	-8.5

Brought forward from above: 6 entries, then new ones.
SMILES	NPYLR7 ag	NPYLR7 ag max-min
C[C@@]1(O)CCN(C(=O)Cn2cccn2)C[C@@H]1Cc1ccccc1	0.4	-0.5
O=C(NCc1cc(-c2ccc(F)cc2F)on1)c1ccc(=O)oc1	-1.6	-2.7
CCC(O)(CC)c1ccc(CN(Cc2ccccc2)Cc2ccco2)o1	5.8	4.6
O=C(NCCc1ccccc1)C(C1CCCC1)N1CCN(C(=O)c2ccc(F)cc2)CC1 (stereo not drawn)	-3.2	1.3
O=C1CC(Nc2cnc3ccccc3n2)CN1Cc1ccccc1Cl (stereo not drawn)	8.2	3.8
O=C(NCCc1ccccc1)C1CCN(C2CCN(C(=O)c3ccccn3)CC2)CC1	-5.4	-8.5
Cc1cc(C)nc(N=Cc2nc(-c3ccc(Br)cc3)oc2O)c1	4.8	2.9
Cc1cnc(C)c(N2CCN(Cc3cnc(S(C)(=O)=O)n3CC(C)C)CC2)n1	10.7	5.1
Cc1ccc2oc(-c3cccc(NC(=O)c4ccc(Br)cc4)c3C)nc2c1	8.4	1.7
COc1ccc(NC(=O)N(CC(=O)N(CCc2c[nH]c3ccccc23)Cc2ccc(OC)c(OC)c2)CC(C)C)c(OC)c1	0.0	11.2
CC(=O)c1sc(NC(=O)c2cccc(C)c2)nc1C	-6.5	-12.2
CCOC(=O)C(Cc1cccc(N2CC(Oc3ccccc3Cl)C2)c1F)OC (stereo not drawn)	2.0	4.6
Cc1cnoc1C(=O)OCc1noc(C(C)(C)C)n1	2.4	0.2
Cc1cccc(NC(=O)Cn2nnc(C(=O)NCc3ccccc3)c2N)c1C	3.9	6.9
CCOc1ccc(-c2ccc(OCCNS(C)(=O)=O)nn2)cc1	-4.3	-2.2
Cc1ccc(Cn2c(CO)cnc2SCc2ccccc2F)cc1	2.7	0.9
C=C(C)Cn1c(=O)c2c(nc3n2CC(C)CN3c2ccc(OC)cc2)n(C)c1=O (stereo not drawn)	17.9	8.9
COc1ccc(/C=C/C(=O)O)cc1S(=O)(=O)Nc1cccc2c1CCCC2	12.1	9.4
CC(C)Oc1cccc(C(=O)C2CCCN(C(=O)c3cccc(N(C)C)c3)C2)c1 (stereo not drawn)	-0.3	-2.5
CC(C)CC(C)NC(=O)c1c(Cl)nc2ccccn12 (stereo not drawn)	-22.2	-25.2
COc1ccc(N2CC(NC(=O)NCCn3c(C)cc4ccccc43)CC2=O)cc1OC (stereo not drawn)	2.2	0.7
CN(C)c1ccc(Nc2cc(-c3cccc4ccccc34)nc3ccnn23)cc1	-0.3	-4.4
O=C(Nc1ccc(-c2nc3ccccc3o2)cc1)Nc1cccc(Cl)c1	32.6	35.1
CCc1[nH]c2c(CNC(=O)CCn3cnnn3)cc(F)cc2c1C	2.6	0.2
COc1ccc(-c2noc(-c3c(SC)nn(CC(=O)NCc4cccc(OC)c4)c3N)n2)cc1	2.4	-2.9
CCCN(Cc1ccc(C(O)(c2cccs2)c2cccs2)o1)Cc1sccc1C	15.4	18.8
COc1cc(-c2nc3c[n+](CC(=O)C(C)(C)C)ccc3n2C)cc(OC)c1OC	0.1	-7.4
Cc1ccc(SC(C)C(=O)ON=C(N)c2cccnc2)cc1 (stereo not drawn)	1.7	-1.0
COCc1nccc(C2CCCN(Cc3ccc(C#N)cc3)C2)n1 (stereo not drawn)	8.7	5.8
CC1(Cc2ccc(Cl)cc2)C(=O)Nc2ccc(OC(F)(F)F)cc21 (stereo not drawn)	1.3	0.9
CC=CCn1c(=O)c2c(nc3n2CC(C)=NN3Cc2ccc(Cl)cc2)n(C)c1=O	2.2	8.8
COCCN(CC(=O)N(CCc1c[nH]c2ccccc12)Cc1ccc(C(F)(F)F)cc1)C(=O)Nc1cccc(Cl)c1Cl	1.1	2.2
CCn1nnc2c(NC(C)C)ncnc21	11.6	3.7
COc1ccc(NS(=O)(=O)c2ccc(/C=C/C(=O)N3CCCCCC3)cc2)cc1	1.1	0.2
COc1cc(C=NNC(=O)CNC(=O)c2ccccc2Br)ccc1O	1.0	-2.1
COC(=O)c1ccccc1NC(=O)c1ccc(F)cc1	5.2	-8.1
O=C(NCc1nnc2n1CCCCC2)C1CCCCC1	2.8	1.9
O=C(NCc1cccnc1)c1cc([N+](=O)[O-])cc([N+](=O)[O-])c1	12.7	13.1
Cc1cc(O)cc2oc(C(F)(F)F)c(-c3cnn(-c4ccccc4)c3)c(=O)c12	-12.3	-15.8
CCN(C(=O)Nc1cc(C)on1)C1CCN(C(C)c2ccccc2)C1 (stereo not drawn)	7.1	4.4
O=S(=O)(Nc1nc2ccccc2nc1NCc1ccco1)c1ccc(F)cc1	1.0	-2.2
COc1ccc(Cl)cc1N1CCN(C(=O)c2cccs2)C(C)C1=O (stereo not drawn)	-2.9	8.2
Cc1ccc(C(=O)C(OC(=O)CNC(=O)CNC(=O)Cc2ccccc2)c2ccccc2)cc1 (stereo not drawn)	4.3	-4.2
Cn1c(SCc2cc(=O)oc3cc4c(cc23)CCC4)nnc1-c1ccco1	-3.1	-4.3
CCCNc1ncc(CN2CCCN(c3ccc(F)cc3)CC2)cn1	-0.3	-0.1
COC(=O)Cn1c(=O)c2c(nc3n(-c4ccc(Oc5ccccc5)cc4)c(C)cn23)n(C)c1=O	6.9	7.0
CCCCNC(=O)C1(C)CCN1C(=O)Cc1cccc2ccccc12 (stereo not drawn)	5.0	0.3
COc1ccccc1-n1c(-c2ccc(Cl)cc2)cc(C(=O)N2CCc3ccccc3C2)c1C	2.0	11.0
Fc1ccc(N2CCN(C3CCCNC3)CC2)cc1 (stereo not drawn)	7.5	5.9
O=C(O)c1cccnc1N1CCc2onc(-c3cccc(F)c3)c2C1	-0.7	-12.2
COCCNC(=O)c1cc(NC(=O)c2cc(C(F)(F)F)cc(C(F)(F)F)c2)ccc1N1CCC(Cc2ccccc2)CC1	-1.0	4.3
CS(=O)c1nncn1CC#Cc1ccc(C(F)(F)F)cc1 (stereo not drawn)	1.2	0.9
COc1cc(-c2nc(C=Nc3cc(Cl)ccc3Cl)c(O)o2)cc(OC)c1OC	-3.1	-8.9
CC(C)c1nc(-c2ccc(OCc3ccc([N+](=O)[O-])cc3)cc2)no1	6.3	3.0
COc1ccc(-c2nc(CN3CCN(Cn4ncn(-c5ccccc5C)c4=S)CC3)cs2)cc1	2.8	9.1
CC(Cl)C(=O)NC1CC2CCC(C1)N2Cc1ccc2c(c1)OCO2 (stereo not drawn)	3.3	11.9
CSCCC(=O)N1CCN(c2nccc(-c3ccc(N4CCOCC4)cc3)n2)CC1	4.6	0.9
COc1ccc(NC(=O)CN(c2ccc(C)cc2)S(=O)(=O)c2ccc(OC)c(OC)c2)cc1	2.5	11.5
CCN1CCN(C(=O)C2CCC(=O)N2C2CCCC2)CC1 (stereo not drawn)	1.4	-1.7
COc1ccc(CN(C)C(=O)NC2CCN(C3CC3)CC2)cc1C	2.3	-3.1
O=C(NCc1ccc(N2CCOCC2)cc1)c1ccc(-c2cnco2)cc1	21.1	18.1
Cc1c(C(=O)Nc2sc3c(c2C#N)CCCC3)cccc1[N+](=O)[O-]	-2.5	-2.5
CC(C)C(=O)N1CCC(CNc2nccc(CCC(F)(F)F)n2)CC1	5.8	4.5
CCCn1ncc(C(=O)N2CCOC(CCCC(C)C)C2)c1C (stereo not drawn)	6.4	2.6
Cc1ccc(S(=O)(=O)Oc2c(CO)cc(C)cc2CO)cc1	12.5	11.5
CN(C)CCn1cnc(-c2ccccc2)c1-c1ccc(-c2cncnc2)cc1	1.7	-0.9

(more compounds)
SMILES	NPYLR7 ag	NPYLR7 ag max-min
O=C1NCCN(C(=O)c2cccc(S(=O)(=O)NC3CC3)c2)C1c1ccccc1 (stereo not drawn)	13.0	8.4
COCCCNC(=O)CCN(Cc1ccco1)c1nc(Cc2cccc(OC)c2)ns1	-10.0	-14.0
CCOC(=O)N1CCN(CC(=O)N2N=C(c3ccc(C)cc3C)CC2c2cc(OC)ccc2OC)CC1 (stereo not drawn)	-0.8	1.2
CC(C)CCNC(=O)c1c(O)nc2ccccn2c1=O	-1.3	26.2
CC(c1ccncc1)N(C)Cc1cccc2nonc12 (stereo not drawn)	-10.3	-15.2
CSCCCN1CCN(Cc2ncccc2C)CC1	-2.0	-3.3
CCn1ccnc1CN1CCN(c2ncnc3ccccc23)CC1	2.6	2.5
Cc1ccc(S(=O)(=O)N=C(N)Nc2nc(C)c3ccccc3n2)cc1	-5.0	-11.3
O=C(c1ccc2c(c1)CCC2)N1CCCC1CCc1ccccc1 (stereo not drawn)	4.0	3.7
Cn1cc(C(=O)Nc2cccc(Cl)c2)c2[nH]c(=O)n(-c3ccc(Cl)cc3)c(=O)c21	5.8	3.5
Cc1ccccc1S(=O)(=O)NC(=O)C1(C)CCN1C(=O)COc1ccc(Cl)cc1 (stereo not drawn)	5.1	2.0
COc1ccc(-c2nnc(NC(=O)C(C)NC(=O)NCc3ccccc3)s2)cc1 (stereo not drawn)	18.7	16.4
COc1cc(C=NN=C(N)N)cc(Br)c1O	3.9	2.0
O=C(NCc1n[nH]c(=O)[nH]1)C1(c2ccc(F)cc2)CCCC1	12.4	9.9
CCCCNC(=S)N(C)N=Cc1c(F)c(F)c(F)c(F)c1F	11.9	10.2
CC(C)COC(=O)N1CCC(C(=O)N2C(C)CCCC2C)CC1 (stereo not drawn)	12.1	9.3
O=c1cc(CN2C=NC3=NS(=O)(=O)c4ccccc4N32)nc2sccn12	6.4	3.5
COc1cc(C=NN2CCN(C3c4ccccc4-c4ccccc43)CC2)cc(OC)c1OC	4.7	4.9
COc1cccc(CC(=O)N(C)CC2CCN(CCc3ccc(F)cc3)CC2)c1	-0.9	-6.1
O=C(Nc1cccc(Cl)c1N1CCOCC1)C1CSC(Cc2ccc(F)cc2)C(=O)N1 (stereo not drawn)	7.6	6.4
Oc1ccc(F)cc1CN(CCN1CCOCC1)Cc1ccco1	-5.5	-9.3
NC(=O)c1c(NC(=O)c2ccco2)sc2c1CCCC2	6.7	4.4
O=C(NCc1cccc(-n2cccn2)c1)c1ccc(=O)[nH]c1	4.6	-2.1
C=CCn1c(SCC(=O)OC)nnc1-c1ccccc1OC	-6.2	0.9

Looked up one by one from the list above (4):
SMILES	NPYLR7 ag	NPYLR7 ag max-min
O=C(NCCc1ccccc1)C1CCN(C2CCN(C(=O)c3ccccn3)CC2)CC1	-5.4	-8.5
C/C=C\Cn1c(C(=O)N2CCCC(C(=O)OCC)C2)cc2ccsc21 (stereo not drawn)	11.0	8.2
Oc1ccc(F)cc1CN(CCN1CCOCC1)Cc1ccco1	-5.5	-9.3
CCOC(=O)C(Cc1cccc(N2CC(Oc3ccccc3Cl)C2)c1F)OC (stereo not drawn)	2.0	4.6

(cont.)
SMILES	NPYLR7 ag	NPYLR7 ag max-min
Cc1nn(C)c(Cl)c1C1CCCN1Cc1cn2ccsc2n1 (stereo not drawn)	0.9	0.5
CN(Cc1cnccn1)C(=O)CCCn1nnnc1CN1CCc2ccccc2C1	3.6	2.7
O=C(CSc1nnc2[nH]c(=O)cc(-c3ccccc3)n12)N1CCOCC1	-4.0	1.1
CC(C(=O)Nc1ccccc1)n1c(=O)cnc2ccccc21 (stereo not drawn)	0.2	-0.8
Cc1ccsc1CN(C)C(=O)c1nn(C)c2c1CCCC2	4.3	5.4
O=C(NCc1ccco1)c1cnn(-c2ccccc2Cl)c1-c1ccccc1	30.4	33.2
CCC(C)c1ccc(S(=O)(=O)Nc2cccc(F)c2)cc1 (stereo not drawn)	-0.5	0.2
CCNc1nc(-c2cc(C)ccc2C)c(C)s1	-1.0	-5.8
O=c1c2nc(N3CCOCC3)sc2c(-c2ccc(F)cc2)nn1Cc1c(F)cccc1Cl	-4.3	-7.6
Cc1cc(C)c(OCC(O)Cn2cc(/C=N\O)c3ccccc32)c(C)c1 (stereo not drawn)	-13.1	-18.9
CCn1nc(-c2ccc(C)c(C)c2)ccc1=O	4.2	1.0
COc1ccc(Cl)c2sc(N(CCN(C)C)C(=O)CCS(=O)(=O)c3ccc(C)cc3)nc12	-0.4	-0.8
Cc1ccc(NS(=O)(=O)c2ccccc2C(F)(F)F)cc1S(=O)(=O)Nc1ccccc1F	2.6	1.7
COc1ccc(-c2cc(N(C)Cc3cc(=O)c(O)co3)n[nH]2)cc1	6.8	4.8
C=CCNC(=O)c1cn(CCOC)cc2c(=O)n(-c3ccccc3)nc1-2	3.6	2.4

Screening data deposited in PubChem by Fisher Drug Discovery Resource Center.
